TNFa cytotox – cytotoxicity in TNFa-stimulated HUVEC, primary screen, cytotoxicity control for VCAM1 expression modulator project, imaging, Hoechst nuclei count; HUVEC TNFalpha-stimulated, Hoechst cell count; cell count reduction, % at 2 µM; 0.17% of 93,000 active; AID 848, 2007;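 active = cell count reduction exceeding the screen mean by over 5 SD, scaled to untreated wells per plate, cut at about 78% in these data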;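 note: cells counted after 24 h of TNF alpha exposure following the 1 h pretreatment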
DAT uptake mod – changed hDAT dopamine uptake under cocaine IC80, either direction, primary screen, cocaine antagonist project, cell-based, LLC-PK1 hDAT, [14C]-dopamine uptake, MLSMR. Sodium-dependent dopamine transporter (Homo sapiens), Q01959. 1.3% of 110,000 active. LLC-PK1 hDAT cells, [14C]-dopamine uptake with cocaine IC80; actives deviate in either direction. B-score at 10 µM;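 active = Z score or B-score, a plate-position-corrected score, falls beyond the plate's 99.7% confidence bounds, in either direction; inactive = both scores lie inside the 99.7% bounds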;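 note: scored against the spread of the other compound wells on the same plate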
Target sequence (Q01959 whole entry, looked up): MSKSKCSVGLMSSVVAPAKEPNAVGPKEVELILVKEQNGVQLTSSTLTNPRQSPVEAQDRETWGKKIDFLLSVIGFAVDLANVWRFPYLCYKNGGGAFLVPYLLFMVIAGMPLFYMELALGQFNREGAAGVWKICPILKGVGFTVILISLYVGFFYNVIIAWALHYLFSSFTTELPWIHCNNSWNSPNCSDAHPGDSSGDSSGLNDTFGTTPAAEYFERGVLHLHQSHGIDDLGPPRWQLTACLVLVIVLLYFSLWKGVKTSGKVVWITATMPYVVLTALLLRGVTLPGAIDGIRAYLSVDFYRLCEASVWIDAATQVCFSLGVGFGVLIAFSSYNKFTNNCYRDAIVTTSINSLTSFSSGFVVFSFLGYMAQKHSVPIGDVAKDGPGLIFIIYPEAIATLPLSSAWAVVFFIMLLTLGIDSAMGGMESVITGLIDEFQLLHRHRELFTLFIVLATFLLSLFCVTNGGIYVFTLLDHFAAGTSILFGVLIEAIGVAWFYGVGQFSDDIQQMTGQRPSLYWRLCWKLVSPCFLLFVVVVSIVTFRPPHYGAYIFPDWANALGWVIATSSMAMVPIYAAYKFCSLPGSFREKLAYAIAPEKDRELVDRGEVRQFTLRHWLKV
IL1B cytotox – cytotoxicity in IL-1B stimulated HUVEC, primary screen, cytotoxicity control for IL-1B NFkB translocation project, imaging, Hoechst nuclear count, IL-1B stimulus | HUVEC cell count loss | cell count reduction, % at 2 µM | 0.41% of 94,000 active | AID 845, 2007;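 active = cell count reduction more than 3 SD above the screen-wide mean, cut at about 70% in these data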;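 note: normalized per plate to untreated control cells as the no-loss baseline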
VCAM1 TNFa inh – inhibitors of TNFa-induced VCAM1 expression, primary screen, imaging, HUVEC, TNFa stimulus, immunofluorescence; HUVEC TNFa-induced VCAM-1 immunofluorescence, high-content imaging; inhibition, % at 2 µM; 0.48% of 95,000 active; AID 802, 2007;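 active = inhibition above the batch mean plus 3 SD, with images confirmed as a hit by eye, cut at about 37% in these data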;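 note: 0% = TNF-stimulated DMSO wells and 100% = unstimulated control wells; not every result past the cut was called active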
Calb biofilm kill – clotrimazole potentiators killing Candida biofilms, primary screen, with clotrimazole, Alamar Blue; 0.14% of 85,000 active; inhibition, % at 6 µM; C. albicans biofilm + clotrimazole;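 active = inhibition above 20%; inactive = inhibition below 20%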;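 note: preformed 24 hr biofilms exposed to compound for 48 hr; 0% = biofilm without compound and 100% = blank killed by clotrimazole plus chlorhexidine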
An asterisk follows results filed as active; . = no result given. A portion of the library; the hit share may differ from the screen's.

#	SMILES	TNFa cytotox	DAT uptake mod	IL1B cytotox
1	CC(C)(C)NC(=O)C(c1ccccn1)N(C(=O)C1CSC(=O)C1)c1ccc(F)cc1 (stereo not given)	9	-0.084	35
2	COc1ccc(OCC(=O)Nc2cc(OC)cc(OC)c2)cc1	.	-0.15	.
3	CCOc1c2ccc(C(=O)NCc3cc(C(F)(F)F)cc(C(F)(F)F)c3)cc2nn1CCOC	4	-0.94	-17
4	COC(=O)CSc1nnc(-c2ccccc2OC)n1-c1ccc(C)cc1	16	.	6
5	CC(Cc1ccccc1)N/C=C1/CC(=O)NC1=O (stereo not given)	-4	-1.1	-39
6	O=C(Nc1cccc(C(=O)N2CCOCC2)c1)c1ccccc1	-10	0.047	-15
7	Cc1ccc(-c2cc(N)n(-c3ccc(C)cc3)n2)cc1	9	0.048	2
8	CCOC(=O)c1ccc(Nc2nc(=O)c3cccnc3s2)cc1	3	-0.94	2
9	CC(=O)c1cc(NC(=O)c2cccc(C(F)(F)F)c2)c(=O)oc1/C=C/N(C)C	2	0.85	22
10	COc1cccc(NC(=O)c2oc3ccccc3c2NC(C)=O)c1	-13	0.5	-25
11	OCCNC1=NCCN1	-43	-0.4	-5
12	CCCCCCCCC[n+]1cccc2c3ccccc3ccc21	-3	3.2*	41
13	COc1ccc(C(C(=O)NC(C)(C)C)N(C(=O)CNC(=O)c2cccs2)c2ccc(C(C)C)cc2)cc1OC (stereo not given)	21	0.21	-33
14	CCc1nnc(NC(=O)CSc2nnc(COc3ccccc3)n2Cc2ccccc2)s1	45	0.76	18
15	CC#CCCCC(=O)Nc1cc(OC)nc(OC)n1	-5	0.14	3

#	VCAM1 TNFa inh	Calb biofilm kill
1	-24	2
2	.	8
3	5	.
4	5	7
5	-10	2
6	19	5
7	13	.
8	-5	.
9	-6	.
10	2	6
11	-4	.
12	-7	.
13	18	.
14	-5	-8
15	34	5

(more compounds)
#	SMILES	TNFa cytotox	DAT uptake mod	IL1B cytotox
16	CC1(C)Cc2c(sc3nc(SCC(=O)NCc4ccccc4)n(-c4ccccc4)c(=O)c23)CS1	-2	0.58	-5
17	CSc1nc(N)nc(SCC(=O)Nc2ccc(Cl)cc2)c1C#N	.	0.27	18
18	CCOc1ccc(C(=O)N2CCCC2C(=O)O)cc1 (stereo not given)	-4	-0.15	1
19	CCOCCCNC(=O)CCS(=O)(=O)Cc1ccc(C)cc1	-32	0.12	-3
20	COc1ccc(NC(=O)COC(=O)c2ccc(OCc3c(C)noc3C)cc2)cc1OC	-1	0.14	3
21	Cc1noc(C)c1C(=O)OCC(=O)NC(c1ccccc1)c1ccccc1	-27	-0.96	19
22	CCOc1cc(/C=N/n2cnnc2)ccc1OC(=O)c1cccc([N+](=O)[O-])c1	-19	-0.82	44
23	CCn1nc(C)c(NC(=O)CCSc2nc(-c3ccco3)cc(C(F)(F)F)n2)c1C	-3	0.11	-24
24	O=C(c1nn(Cc2ccccc2)c(=O)c2ccccc12)N1CCN(C/C=C/c2ccccc2)CC1	4	4*	-3
25	O=C(CSc1ccc(Cl)cc1)N1CCN(c2ccc(Cl)cc2[N+](=O)[O-])CC1	-2	2.5	-8
26	COc1ccccc1-c1nnc(SCc2nc3ccccc3s2)n1C	-14	-0.15	-4
27	Cc1nn(Cc2c(Cl)cccc2Cl)c(C)c1NC(=O)c1cn(-c2ccccc2)nc1-c1ccccc1	-28	.	0
28	CCn1c(-c2cccnc2)n[nH]c1=S	-26	-0.97	-6
29	Cc1ccccc1OCC(=O)NC(=S)Nc1ccc(S(=O)(=O)NC2CCCCC2)cc1	5	0.67	-6
30	CCCc1[nH]nc2c1C(c1ccncc1)C(C#N)=C(N)O2 (stereo not given)	-37	1	-45

#	VCAM1 TNFa inh	Calb biofilm kill
16	1	3
17	-31	.
18	-8	8
19	6	6
20	8	-1
21	13	4
22	-23	.
23	17	6
24	12	5
25	-4	.
26	12	1
27	-11	.
28	5	.
29	3	.
30	-7	-2

Full records, looked up by structure. Order of values: TNFa cytotox | DAT uptake mod | IL1B cytotox | VCAM1 TNFa inh | Calb biofilm kill
Entry for CCOc1ccc(C(=O)N2CCCC2C(=O)O)cc1 (stereo not given) = -4 | -0.15 | 1 | -8 | 8
Entry for O=C(c1nn(Cc2ccccc2)c(=O)c2ccccc12)N1CCN(C/C=C/c2ccccc2)CC1 = 4 | 4* | -3 | 12 | 5
Entry for CCn1c(-c2cccnc2)n[nH]c1=S = -26 | -0.97 | -6 | 5 | .
Entry for O=C(CSc1ccc(Cl)cc1)N1CCN(c2ccc(Cl)cc2[N+](=O)[O-])CC1 = -2 | 2.5 | -8 | -4 | .

(next part)
#	SMILES	TNFa cytotox	DAT uptake mod	IL1B cytotox
31	COc1ccc(NC(=O)N(C2CCCCC2)C(C)c2cccnc2)c(OC)c1 (stereo not given)	0	1.3	-52
32	Cc1ccc(C(=O)COc2ccccc2C(=O)Nc2ccccc2)cc1	0	0.31	-4
33	CC(=O)Nc1ccc(OCC(O)Cn2c3ccccc3c3ccccc32)c(C)c1 (stereo not given)	1	-0.63	-34
34	CCN(CC)c1ccc(N2C(=O)/C(=C\c3cccnc3)SC2=S)cc1	-5	-0.27	-29
35	CCC(C)(C)NC(=O)C(c1ccc(C)o1)N(Cc1cccs1)C(=O)Cn1nnc2ccccc21 (stereo not given)	-24	0.046	-45
36	Cc1sc(NC(=O)C2CCCCC2C(=O)O)c(C(N)=O)c1-c1ccc(C(C)(C)C)cc1 (stereo not given)	-13	0.66	-15
37	CCOc1ccc2nc(C)cc(C(=O)O)c2c1	-12	0.55	-98
38	Cc1sc(N/N=C/C=C/c2ccccc2)nc1-c1ccccc1	-7	-0.74	-29
39	O=C(NCc1cccnc1)/C(=C/c1ccc(-c2cccc(Cl)c2)o1)S(=O)(=O)c1ccccc1	-14	-0.37	-28
40	COc1ccc(CN(C(=O)c2cccs2)C(C(=O)NC2CCCCC2)c2ccc3ncccc3c2)cc1 (stereo not given)	-15	.	-11
41	O=C(CNC(=O)c1ccccn1)N/N=C/c1ccccc1	-5	-0.18	-39
42	Oc1ccc2ccccc2c1CNc1cnc2ccccc2c1	-4	-0.4	-9
43	Cc1cc(C)c2cc(CN(Cc3nnnn3Cc3ccc(F)cc3)C3CCCC3)c(=O)[nH]c2c1	-9	0.024	4
44	Cc1ccc(-c2csc3ncnc(SCC(=O)c4ccc5c(c4)OCCO5)c23)cc1	-17	0.0054	19
45	CCOC(=O)N1CCN(C(=O)c2ccc3c(=O)n(-c4ccc(F)cc4)c(=S)[nH]c3c2)CC1	-6	-0.99	-22

#	VCAM1 TNFa inh	Calb biofilm kill
31	-4	5
32	1	.
33	6	.
34	7	.
35	2	-4
36	2	.
37	9	0
38	12	.
39	15	.
40	-8	.
41	8	.
42	23	.
43	2	-1
44	-18	.
45	10	4

Remaining list, next part
#	SMILES	TNFa cytotox	DAT uptake mod	IL1B cytotox
46	Cc1noc(C)c1COc1ccc(C(=O)NCC2CCCO2)cc1 (stereo not given)	0	-0.79	3
47	CCc1ccc(OCCCOc2ccc(C=O)cc2)cc1	-12	0.019	-6
48	CCCCCCCCCCCC(=O)NC(C(=O)OCC)C(O)c1cccc([N+](=O)[O-])c1 (stereo not given)	-6	-0.29	18
49	COc1ccccc1Cn1nnc2c(=O)[nH]c(C3CCN(C(=O)c4ccc(C)cc4)CC3)nc21	-55	.	-23
50	Cc1cc(C)cc(OCC(=O)NNC(=O)c2cc(C)[nH]n2)c1	-1	-0.4	7
51	O=C(NCC12CC3CC(CC(C3)C1)C2)c1cc2n(n1)C(C(F)(F)F)CC(c1ccco1)N2 (stereo not given)	-16	0.93	-17
52	O=C1CSC(c2ccccn2)N1c1ccccc1 (stereo not given)	-1	1.5	-6
53	CCCCN(C(=O)NC(=O)Nc1ccccc1OCC)S(C)(=O)=O	-15	-1	-2
54	CC(C)OC(=O)c1sc2nc(-c3ccccc3)ccc2c1N	.	0.56	-18
55	COc1ccc(C(=O)NCc2ccc(-c3nc4ccccc4s3)cc2)cc1	-1	0.32	-24
56	O=C(Cc1ccc(F)cc1)N(c1ccc(F)cc1)C1C=CS(=O)(=O)C1 (stereo not given)	-3	-0.18	-5
57	COC(=O)c1ccc(C(=O)OC)c(NC(=O)CSCc2ccc(Br)cc2)c1	6	-0.094	-23
58	CC(=O)c1cccc(NC(=O)CSCc2ccccc2)c1	23	1.1	-79
59	O=C1CC(N2CCN(c3nc4ccccc4s3)CC2)C(=O)N1c1cccc(F)c1 (stereo not given)	-16	1.1	-3
60	CC(C)CNc1cc(N2CCCC2)ccc1[N+](=O)[O-]	-5	-0.0073	34

#	VCAM1 TNFa inh	Calb biofilm kill
46	-2	2
47	25	3
48	3	.
49	-2	-3
50	1	.
51	-6	-5
52	-34	.
53	-4	4
54	-42	.
55	2	.
56	2	2
57	8	.
58	0	.
59	3	5
60	2	.

Additional results.
#	SMILES	TNFa cytotox	DAT uptake mod	IL1B cytotox
61	CCn1c(CC(=O)Nc2ccc(C)cc2)nnc1SCC(=O)Nc1nc(C)cs1	-32	1.4	-3
62	CCC(C)NC(=O)C(NS(=O)(=O)c1cccc2nsnc12)c1ccccc1 (stereo not given)	-3	.	-26
63	Cn1ccnc1Sc1ccc(/C=N/NC(=O)c2ccccc2[N+](=O)[O-])cc1[N+](=O)[O-]	-41	-0.26	5
64	COCCCn1c(SCc2nnc(-c3ccccc3)o2)nc2sc3c(c2c1=O)CCC3	-4	0.36	-10
65	COC(=O)c1cc(NC(=O)N2c3ccccc3Sc3ccccc32)cc(C(=O)OC)c1	-7	0.018	-16
66	Cc1nn(-c2ccccc2)c2c1C(=O)N(Cc1ccccc1)C(=O)C(C)(C)C2	9	-0.47	5
67	Cc1ccc(CSC2=CS(=O)(=O)c3ccccc3N2)cc1	-26	0.34	-13
68	Cc1ccc(-n2c([O-])nc(-[n+]3ccccc3)c2C=O)cc1	29	0.00015	1
69	CCN(CC)c1ccc(/C=N/NC(=S)NCc2ccccc2)cc1	-5	-0.64	-42
70	CC(C)(C)N(NC(=O)Nc1ccc(Cl)c(Cl)c1)C(=O)c1ccccc1	1	0.31	12
71	CCOc1ccc(NC(=O)N(CCN2CCOCC2)Cc2ccc3c(c2)CCCN3CC)cc1	-52	2.1	-30
72	COc1cc(C2C(C#N)=C(N)Oc3c2ccc2ccccc32)ccc1OCC(=O)Nc1ccccc1C (stereo not given)	.	-1.2	35
73	CCS(=O)(=O)N1CCC(C(=O)NCCc2ccccc2)CC1	-12	0.31	-113
74	CCN(CC)CCCN1C(=O)C(O)=C(C(=O)c2cc3cccc(OC)c3o2)C1c1ccncc1 (stereo not given)	-15	.	-49
75	O=C(Nc1ccc(Oc2ccccc2)cc1)C1CCN(c2c3c(nc4ncnn24)CCC3)CC1	-6	0.96	-3

#	VCAM1 TNFa inh	Calb biofilm kill
61	4	5
62	16	2
63	11	.
64	15	.
65	-4	.
66	-6	6
67	3	.
68	10	.
69	2	.
70	1	.
71	10	3
72	-13	.
73	-4	8
74	-5	9
75	8	3

Next part:
#	SMILES	TNFa cytotox	DAT uptake mod	IL1B cytotox
76	CCOC(=O)C1(N(CC)CC)Sc2cc(C)ccc2NC1=O (stereo not given)	49	.	11
77	Cc1ccc(SCc2nc3ccccc3n2CC(=O)Nc2ccc(Cl)cc2)cc1	-21	-0.031	-51
78	COc1ccc(CNC(=O)C2CCN(C(=O)N3CCOc4ccc(C)cc43)CC2)cc1	4	-0.0033	20
79	N#Cc1nc(Cc2cccc3ccccc23)oc1N1CCN(c2ccccc2)CC1	-19	-1.1	-12
80	O=C(/C=C/c1ccc(-c2ccccc2[N+](=O)[O-])o1)c1ccc(F)cc1	10	-0.3	-56
81	COc1c(/C=N/Nc2nc(N3CCCCC3)nc(N3CCCCC3)n2)cccc1[N+](=O)[O-]	16	0.012	-48
82	CCNc1nc(NCC)nc(C(=O)Nc2ccccc2)n1	12	1.6	0
83	COc1ccc(C(=O)NCS(=O)(=O)c2ccc(C)cc2)cc1	-11	-0.53	5
84	CCOc1ccccc1OCC(=O)Nc1ccc(Cl)cc1Cl	-52	-0.96	-21
85	CCOC(=O)c1cncc(C(=O)O)c1	7	0.91	-17

#	VCAM1 TNFa inh	Calb biofilm kill
76	14	4
77	12	.
78	-18	.
79	-1	4
80	-4	.
81	2	.
82	-12	0
83	9	4
84	11	3
85	17	.
